VACV mCherry inh: inhibitors of vaccinia virus infection (mCherry reporter signal); Vaccinia virus mCherry reporter infection, fluorescence; about a quarter of the inactives have no number; Potency, µM (doses to about 36.5 µM), for inactives: top-dose activity change, negative = inhibition, actives largely listed as inhibitors; 310,000 compounds, 0.63% hits; AID 720579; active = well fitted inhibition curve with a large enough effect; inconclusive = small, poorly fitted or top-dose-only effect; inactive = no such curve, though single readings can be large or run the other way; tested in A549 cells; also: nearly all actives have a fitted effect of over 35% in size; inactives centre near -10
Vaccinia Venus: vaccinia inhibition (Venus reporter); Potency, µM (highest dose often 36.5 µM), inactives show at the top dose activity change, negative = inhibition, actives largely listed as inhibitors; 330,000 compounds, 0.46% hits; Vaccinia virus Venus reporter expression, fluorescence; active means well fitted inhibition curve with a large enough effect; inconclusive means small, poorly fitted or top-dose-only effect; inactive means no such curve, though single readings can be large or run the other way; tested in A549 cells; also: nearly all actives have a fitted effect of over 30% in size; inactives centre near -10
An asterisk follows results filed as active; & = joins results of further samples; [ ] = another dose, or the depositor's remark. % is scaled to controls: 0 for no effect and ±100 for the full control effect; potency is read from the fitted curve at half-maximal effect. The order is random; 0.87% or so of the library scored in one or more.

Start of the data: the first three entries, ahead of the listing:
`CCc1nc2ccc(C(=O)NCCc3ccc(OC)cc3)cc2nc1CC` gave VACV mCherry inh -5%[7.34 µM] and Vaccinia Venus 0%[7.34 µM].
For C[N+]1(CC(=O)c2ccc(Oc3ccccc3)cc2)CCOCC1 the results were VACV mCherry inh -15% and Vaccinia Venus -7%.
COc1ccc(NC(c2ccccc2)P(=O)(Oc2ccccc2)Oc2ccccc2)cc1 (centres undefined) was read as VACV mCherry inh -1% and Vaccinia Venus -7%.

The list itself, from the first entry:
`CCc1nc2ccc(C(=O)NCCc3ccc(OC)cc3)cc2nc1CC` gave VACV mCherry inh -5%[7.34 µM] and Vaccinia Venus 0%[7.34 µM].
For C[N+]1(CC(=O)c2ccc(Oc3ccccc3)cc2)CCOCC1 the results were VACV mCherry inh -15% and Vaccinia Venus -7%.
COc1ccc(NC(c2ccccc2)P(=O)(Oc2ccccc2)Oc2ccccc2)cc1 (centres undefined) was read as VACV mCherry inh -1% and Vaccinia Venus -7%.
Cc1cc(C)c2c(CC(=O)NC(C)C)coc2c1 was read as VACV mCherry inh -1% and Vaccinia Venus 1%.
For CC(C)(C)c1ccc(C(=O)N2CCC2(C)C(=O)NS(=O)(=O)c2ccccc2Cl)cc1 (centres undefined) the results were VACV mCherry inh 50%[activator] and Vaccinia Venus -5%.
For Cc1ccc(C(=O)N2CCc3cc(CNC(=O)c4ccnn4C)ccc32)cc1 the results were VACV mCherry inh -16% and Vaccinia Venus inconclusive.
Clc1ccc2c(c1)C=Nc1c(NCc3ccccc3)ncnc1O2 was read as VACV mCherry inh inactive and Vaccinia Venus -10%.
Screening COc1cc(C2c3cc4c(cc3C(O)C3COC(=O)C23)OCO4)cc(OC)c1O (centres undefined) returned VACV mCherry inh 14µM* and Vaccinia Venus inconclusive.
`CCN(CC)c1ccc(/C=N/NC(=O)CNC(=O)c2cccnc2)cc1` gave VACV mCherry inh -11% and Vaccinia Venus -3%.
COC(=O)c1ccc(N2CCOCC2)c(NC(=O)c2cccnc2)c1 was read as VACV mCherry inh -10% and Vaccinia Venus -9%.
CSc1ccccc1NC(=O)COC(=O)c1ccccc1Cc1ccccc1 was read as VACV mCherry inh -12% and Vaccinia Venus -12%.
Screening CCN(CC)S(=O)(=O)c1ccc(C(=O)N2CCN=C2SCc2cccnc2)cc1 returned VACV mCherry inh -30% and Vaccinia Venus -18%.
For CCCc1nn2c(=O)cc(COC(=O)c3ccccc3NC(=O)c3ccc(Cl)cc3)nc2s1 the results were VACV mCherry inh -10% and Vaccinia Venus -2%.
For Cc1c(S(=O)(=O)N2CC(C)CC(C)C2)c(=O)n(C)c(=O)n1C (centres undefined) the results were VACV mCherry inh inactive and Vaccinia Venus -5%.
`OCCCCNCc1ccc(OCc2ccc(Cl)cc2)cc1` gave VACV mCherry inh -19% and Vaccinia Venus -21%.
For CC(C(=O)NC1CCCCC1)N(Cc1ccc(F)cc1)C(=O)c1snc(C(N)=O)c1N (centres undefined) the results were VACV mCherry inh 5% and Vaccinia Venus -6%.
`COc1ccccc1C(=O)Nc1nc2nc(C)c(Cc3ccccc3)c(=O)n2[nH]1` gave VACV mCherry inh -4% and Vaccinia Venus -12%.
O=C(NCc1cccs1)c1cc(-c2ccccn2)nc2ccc(Br)cc12 was read as VACV mCherry inh 1% and Vaccinia Venus -5%.
Screening COc1ccc(C(=O)Nc2ccc3c(c2)C(=O)c2ccccc2C3=O)cc1OC returned VACV mCherry inh 0% and Vaccinia Venus 1%.
For O=C(C1=C[C@H](C2CCCCC2)C[C@H](OCc2ccc(CO)cc2)O1)N1CCN(Cc2ccccc2)CC1 the results were VACV mCherry inh inconclusive and Vaccinia Venus inconclusive.
Cc1ccccc1-c1cnc(C(O)c2ccccc2)[nH]1 (centres undefined) was read as VACV mCherry inh inactive and Vaccinia Venus 4%.
`Cc1ccc(C(=O)N/C(=C\c2ccco2)C(=O)N2CCSCC2)cc1C` gave VACV mCherry inh inactive and Vaccinia Venus -11%.
For Cc1ccc(S(=O)(=O)NCCCN(C)C)cc1 the results were Vaccinia Venus -10%.
Screening COC(=O)c1c(NC(=O)Cn2cnc([N+](=O)[O-])n2)sc2c1CCC(C)C2 (centres undefined) returned VACV mCherry inh inactive and Vaccinia Venus -6%.
Screening COC(=O)C1C(O)CCC2CN3CCc4c([nH]c5ccccc45)C3CC21 (centres undefined) returned VACV mCherry inh 15% and Vaccinia Venus 3%.
CC(=O)Nc1nc2cc(N)ccc2s1 was read as VACV mCherry inh -20% and Vaccinia Venus -2%.
COc1cccc(-c2csc(N3CCN(C(=O)Nc4ccc(F)cc4)CC3)n2)c1 was read as VACV mCherry inh inconclusive and Vaccinia Venus inconclusive.
For CC(=O)NC(=S)Nc1ccc(S(=O)(=O)N(C)Cc2ccccc2)cc1 the results were VACV mCherry inh -11% and Vaccinia Venus -10%.
For O=C(Nc1cc([N+](=O)[O-])ccc1N1CCCC1)c1ccccc1 the results were VACV mCherry inh -2% and Vaccinia Venus -4%.
For Cn1cccc1/C=N/NC(=O)Cc1ccccc1 the results were VACV mCherry inh -14% and Vaccinia Venus -8%.
For COc1ccccc1Cn1c(CCCO)nc2ccccc21 the results were Vaccinia Venus -17%.
Cc1ccc2c(c1)N(C(=O)CCC(=O)NCc1cccc(Br)c1)CC(C)O2 (centres undefined) was read as VACV mCherry inh -26% and Vaccinia Venus inconclusive.
`CCc1noc(C)c1C(=O)Nc1cc(S(=O)(=O)N(CC)CC)ccc1N1CCCC1` gave VACV mCherry inh -5% and Vaccinia Venus -5%.
`COc1cccc(Cn2c(=O)n(CC3CCC(C(=O)NC(C)C)CC3)c(=O)c3sccc32)c1` (centres undefined) gave VACV mCherry inh 8% and Vaccinia Venus 0%.
For Clc1ccc2nc(CSc3nncn3-c3ccccc3)cn2c1 the results were VACV mCherry inh -9% and Vaccinia Venus -9%.
CC(C)(C)OC(=O)CC1(C#N)c2ccccc2C(Br)=CN1C(=O)c1ccccc1 (centres undefined) was read as VACV mCherry inh inconclusive and Vaccinia Venus -19%.
Screening CCOc1ccccc1CN(Cc1ccco1)S(=O)(=O)c1ccc(-n2cnnn2)c(OC)c1 returned VACV mCherry inh inconclusive and Vaccinia Venus inconclusive.
For COc1ccccc1NC(=O)c1nn(-c2ccc(OC(F)(F)F)cc2)ccc1=O the results were VACV mCherry inh inactive and Vaccinia Venus -11%.
`CCCCC(=O)C1=C(N2CCCC2)CC(C)(C)CC1=O` gave VACV mCherry inh -8% and Vaccinia Venus -14%.
For COc1ccc(OC)c(Cc2nnc(CCC(=O)NC3CCCC3)o2)c1 the results were VACV mCherry inh inactive and Vaccinia Venus -25%.
CCCN1CCN(C(=S)Nc2sc(CC)cc2C(=O)OC)CC1 was read as VACV mCherry inh -4% and Vaccinia Venus -6%.
CCC(C)n1ncn(-c2ccc(N3CCN(c4ccc(OC)cc4)CC3)cc2)c1=O (centres undefined) was read as VACV mCherry inh -1% and Vaccinia Venus -13%.
`COc1ccccc1OC(C)C(=O)Nc1c(C(=O)c2ccc(Cl)cc2)oc2ccccc12` (centres undefined) gave VACV mCherry inh 2% and Vaccinia Venus -9%.
Screening CNc1cc(-n2nc(C)cc2-c2ccccc2)ncn1 returned VACV mCherry inh -6% and Vaccinia Venus -8%.
C=C1CCC[C@]2(C)C[C@H]3OC(=O)C(CN4CCCCC4CO)[C@H]3CC12 (some centres undefined) was read as VACV mCherry inh 3.2µM* and Vaccinia Venus 2.5µM*.

2 neighbouring records already listed, for reference:
For COc1ccccc1Cn1c(CCCO)nc2ccccc21 the results were Vaccinia Venus -17%.
Cc1ccc2c(c1)N(C(=O)CCC(=O)NCc1cccc(Br)c1)CC(C)O2 (centres undefined) was read as VACV mCherry inh -26% and Vaccinia Venus inconclusive.

(more compounds)
`COc1cc(C(=O)NCc2ccc(C)cc2)ccc1OC(F)F` gave VACV mCherry inh inactive and Vaccinia Venus -14%.
`Fc1ccc(CNC(=S)Nc2cccc(Cl)c2)cc1` gave VACV mCherry inh -25% and Vaccinia Venus -22%.
Screening COCCN1C(=O)N[C@@H](c2ccco2)C(C(=O)OC)=C1C returned VACV mCherry inh -17% and Vaccinia Venus -12%.
COc1ccc(/C=C/c2nc3ccccc3c(=O)n2-c2cccc(C(=O)O)c2)cc1 was read as VACV mCherry inh inactive and Vaccinia Venus -7%.
CCCNC(=O)C1(S(=O)(=O)c2ccccc2)CC=CC1 was read as VACV mCherry inh -3% and Vaccinia Venus -5%.
C/C(=N\N=c1/sc2ccccc2n1C)c1ccc(N2CCOCC2)cc1 was read as VACV mCherry inh inactive and Vaccinia Venus 1%.
`c1ccc2c(c1)OC1OC2Oc2ccccc21` gave VACV mCherry inh -17% and Vaccinia Venus -10%.
CN1C(=O)c2ccccc2C(C(=O)NCCCN2CCCC2=O)C1c1c[nH]c2ccccc12 (centres undefined) was read as Vaccinia Venus inconclusive.
Screening COc1ccc(C(=O)COC(=O)CCN2C(=O)[C@@H]3[C@H](C2=O)[C@@H]2C[C@H]3C(Br)C2Br)cc1 (some centres undefined) returned VACV mCherry inh -21% and Vaccinia Venus -14%.
Cc1ccccc1NC(=O)CSC(N)=O was read as Vaccinia Venus -15%.
For O=C(CN1C(=O)NC2(CCCCCC2)C1=O)Nc1ccc(S(=O)(=O)N2CCOCC2)cc1 the results were Vaccinia Venus -9%.
`COc1cc2c(cc1OC)CN(S(=O)(=O)/C=C/c1ccccc1)CC2` gave VACV mCherry inh inactive and Vaccinia Venus -21%.
Screening S=C(NCc1ccco1)N1CCN(c2ccccc2Cl)CC1 returned VACV mCherry inh inactive and Vaccinia Venus -7%.
For COC(=O)c1c(SCC(=O)Nc2ccccc2OC)[nH]c2ccccc2c1=O the results were VACV mCherry inh -2% and Vaccinia Venus 3%.
`O=C(COc1ccccc1C(=O)c1cnn(-c2ccccc2)c1)Nc1ccccc1` gave VACV mCherry inh -9% and Vaccinia Venus -15%&-9%.
Screening CN(C)S(=O)(=O)c1ccc(Cl)c(NC(=O)CN2CCN(c3ccccn3)CC2)c1 returned VACV mCherry inh -19% and Vaccinia Venus -10%.
Screening C=C(c1ccc(O)cc1)c1ccc(O)cc1 returned Vaccinia Venus -29%.
For COc1cc(C2C(C#N)=C(N)Oc3n[nH]c(C)c32)ccc1OC(=O)c1ccccc1 (centres undefined) the results were VACV mCherry inh -1% and Vaccinia Venus -6%.
For COCCOC1CCN(C(=O)c2cc(COc3ccc(-n4cncn4)cc3)on2)CC1 the results were VACV mCherry inh -13% and Vaccinia Venus -1%.
C=C1SC(Nc2c(C)cc(C)cc2C)=NC12CCCCC2 was read as VACV mCherry inh -18% and Vaccinia Venus -24%.
CCOCCCNC(=O)C1CCC(CNS(=O)(=O)c2ccc(F)cc2)CC1 (centres undefined) was read as Vaccinia Venus -19%.
Cc1ccc([C@@H]2CC=C(C(=O)O)[C@H](c3ccc(Cl)cc3)N2S(=O)(=O)c2ccc(C)cc2)cc1 was read as VACV mCherry inh -14% and Vaccinia Venus -16%.
Screening O=C(Nc1ccccn1)C1CCN(S(=O)(=O)c2ccc3c(c2)OCCCO3)CC1 returned VACV mCherry inh -19% and Vaccinia Venus -13%.
Screening Cc1ccc(-c2nnc3sc(CCc4ccccc4)nn23)cc1 returned VACV mCherry inh inconclusive and Vaccinia Venus -1%.
`CN(C)/C=N/c1cc(=O)n(C)c(=O)n1Cc1ccccc1` gave VACV mCherry inh -14% and Vaccinia Venus 1%.
`COc1ccccc1CN(C)S(=O)(=O)c1cccs1` gave VACV mCherry inh -14% and Vaccinia Venus 1%.
For COCCN(CCOC)C(=O)c1ccc(SCc2ccc(C)cc2)c([N+](=O)[O-])c1 the results were VACV mCherry inh inactive and Vaccinia Venus 5%.
Screening COc1ccc(CCN2CC(C(=O)NCc3ccon3)CCC2=O)cc1 (centres undefined) returned VACV mCherry inh -20% and Vaccinia Venus -5%.
`Cc1ccc(S(=O)(=O)c2ccc(Cl)cc2)cc1S(=O)(=O)N(C)CC(=O)O` gave VACV mCherry inh -12% and Vaccinia Venus -20%.
For C=C1N(c2ccccc2)C(=O)OC1(C)C the results were VACV mCherry inh -13% and Vaccinia Venus -5%.

Among those listed so far, these have a cyano group:
CC(C)(C)OC(=O)CC1(C#N)c2ccccc2C(Br)=CN1C(=O)c1ccccc1 (centres undefined) was read as VACV mCherry inh inconclusive and Vaccinia Venus -19%.
For COc1cc(C2C(C#N)=C(N)Oc3n[nH]c(C)c32)ccc1OC(=O)c1ccccc1 (centres undefined) the results were VACV mCherry inh -1% and Vaccinia Venus -6%.

Other results:
For Cc1ccc(C(=O)N(Cc2nc(-c3ccc(C)cc3)no2)C(C)C)cc1 the results were VACV mCherry inh -11% and Vaccinia Venus -1%.
Cc1ccccc1C(=O)Nc1sc2c(c1C(=O)NCc1ccco1)CCC(C(C)(C)C)C2 (centres undefined) was read as VACV mCherry inh -6% and Vaccinia Venus -9%.
`O=C(NCCc1ccc(Cl)cc1)c1cnc2sc(N3CCCCC3)nn2c1=O` gave VACV mCherry inh 8% and Vaccinia Venus -4%.
For Cc1cc(C(=O)N2CCN(c3cccc(C)c3C)CC2)c2c(C)nn(-c3ccccc3)c2n1 the results were VACV mCherry inh -10% and Vaccinia Venus -11%.
For CCc1ccc(NCc2cc3cc4c(cc3n(CC(=O)Nc3ccccc3C)c2=O)OCCO4)cc1 the results were VACV mCherry inh -10% and Vaccinia Venus -13%.

3 entries drawn at random from those above, as already listed:
For COc1ccc(OC)c(Cc2nnc(CCC(=O)NC3CCCC3)o2)c1 the results were VACV mCherry inh inactive and Vaccinia Venus -25%.
C/C(=N\N=c1/sc2ccccc2n1C)c1ccc(N2CCOCC2)cc1 was read as VACV mCherry inh inactive and Vaccinia Venus 1%.
CCOCCCNC(=O)C1CCC(CNS(=O)(=O)c2ccc(F)cc2)CC1 (centres undefined) was read as Vaccinia Venus -19%.
